# Screening data (PubChem)
# 2A StopGo – lowers the luciferase signal of an FMDV 2A StopGo reporter; Potency, µM (highest dose often 57.9 µM), inactives show top-dose signal change, negative = less light; human cells with a luciferase reporter of 2A StopGo recoding; control for the full effect not named in the record; AID 1159524; hit rate 1.2% among 410,000; active = well fitted falling curve with a large enough effect; inconclusive = small, poorly fitted or top-dose-only effect; inactive = no such curve, though single readings can be large or run the other way; tested in HEK293T cells; further: on the % scale 0 is the no-effect control and ±100 the full control effect; nearly all actives have a fitted effect of over 45% in size; luciferase light after 4 h
# NS1 inh – inhibitors of influenza NS1 protein function | Potency, µM (titrated, usually from 46.1 µM), for inactives: at the highest dose activity, positive = more growth | S. cerevisiae slowed by influenza A NS1, growth recovery by OD600 | hit rate 0.4% among 270,000; further: actives are rising curves; nearly all actives have a fitted effect of over 50% in size
#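 In this qHTS, NS1 from influenza A is expressed in budding yeast, where it slows growth. Cells are switched from glucose to 2% galactose medium (pH 6.0, -URA), treated with compound, and growth recovery is read at OD600.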
# Cruzain inh noDet – inhibitors of Trypanosoma cruzi cruzain without detergent. purified cruzain, Z-FR-AMC fluorescence, no detergent. hit rate 2.3% among 200,000. AID 1476. P25779. Potency, µM, inactives show max response, negative = inhibition, usual class: inhibitors; active means well fitted curve in the direction sought with a large enough effect; inconclusive means small, poorly fitted or top-dose-only effect, or another doubt; inactive means no such curve, though single readings can be large; an effect the other way counts as inactive or inconclusive;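 further: plate controls were enzyme without inhibitor for no effect and buffer without enzyme for full effect; nearly all actives have a fitted effect of over 40% in size; top concentration of the series not given in the record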
# Target sequence (P25779 123-467 limits assumed): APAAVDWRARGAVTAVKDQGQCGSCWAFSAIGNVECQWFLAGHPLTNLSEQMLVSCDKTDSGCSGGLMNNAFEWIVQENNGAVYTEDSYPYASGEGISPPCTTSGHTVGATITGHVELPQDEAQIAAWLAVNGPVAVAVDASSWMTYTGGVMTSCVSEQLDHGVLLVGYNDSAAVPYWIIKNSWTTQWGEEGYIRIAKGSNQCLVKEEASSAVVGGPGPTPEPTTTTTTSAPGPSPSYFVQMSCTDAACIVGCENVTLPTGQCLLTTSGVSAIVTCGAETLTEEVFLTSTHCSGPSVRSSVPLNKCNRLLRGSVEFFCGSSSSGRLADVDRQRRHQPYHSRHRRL
#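 Purified cruzain at 1.5 nM, pre-incubated 15 min with compound at room temperature in 100 mM sodium acetate pH 5.5, 5 mM DTT, 0.00005% Triton X-100. Reaction started with 2 uM Z-FR-AMC; AMC fluorescence increase over 60 s gives rate.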
# MARV entry inh – blocks Marburg virus binding to or entry into cells; Marburg virus pseudotyped entry inhibition, cell reporter; control for the full effect not named in the record; about a third of the inactives were read at about 46 µM; Potency, µM (top dose mostly 37.8 µM), inactives show at the highest dose activity change, negative = inhibition, most hits filed as inhibitors; hit rate 1.8% among 300,000; AID 540276; active = well fitted inhibition curve with a large enough effect; inconclusive = small, poorly fitted or top-dose-only effect, or effect the other way; inactive = flat fitted curve, though single readings scatter; tested in HEK293 cells; about a fifth of its hits are not listed in these tables; further: on the % scale 0 is the no-effect control and ±100 the full control effect; luciferase read-out
# LASV entry inh – inhibitors of Lassa virus binding or cell entry. Potency, µM (top dose mostly 37.9 µM), for the others: top-dose activity change, negative = inhibition, usual class: inhibitors. Lassa virus pseudotype entry inhibition, cell reporter; control for the full effect not named in the record. hit rate 1.2% among 300,000; active means well fitted inhibition curve with a large enough effect; inconclusive means small, poorly fitted or top-dose-only effect, or effect the other way; inactive means flat fitted curve, though single readings scatter; tested in HEK293 cells; further: on the % scale 0 is the no-effect control and ±100 the full control effect; nearly all actives have a fitted effect of over 50% in size; luciferase read-out
# SARS PLpro yeast – inhibitors of SARS-CoV papain-like protease in yeast; S. cerevisiae expressing SARS-CoV PLpro, growth rescue; control for the full effect not named in the record; hit rate 0.19% among 330,000; Potency, µM (series often up to 32.9 µM), for the others: at the top dose activity, positive = growth rescue; further: 0% is about no effect; nearly all actives have a fitted effect of over 55% in size; growth read by luminescence after 48 h
# RE007 growth inh – less growth of the S. pombe RE007 Vpr strain. hit rate 0.21% among 360,000. S. pombe RE007 Vpr strain, BacTiter-Glo ATP luminescence, 24 h; control for the full effect not named in the record. Potency, µM (highest dose often 92.2 µM), for the others: at the highest dose activity change, negative = less growth; active = well fitted falling curve with a large enough effect; inconclusive = small, poorly fitted or top-dose-only effect; inactive = no such curve, though single readings can be large or run the other way;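 further: on the % scale 0 is the no-effect control and ±100 the full control effect; nearly all actives have a fitted effect of over 50% in size; the assay follows cell death caused by Vpr and the record does not say whether a fall means rescue or toxicity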
#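 Fission yeast RE007 carrying one integrated HIV-1 vpr copy, seeded at OD 0.01 in PMG+AL medium with 23 nL pinned compound. Grown 24 h at 30 degrees; viability read by BacTiter-Glo luminescence after 5 min.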
# Cruzain Triton – blocks cruzain activity in presence of Triton detergent; P25779; purified cruzain, Z-FR-AMC fluorescence, 0.01% Triton; Potency, µM, for inactives: max response, negative = inhibition, hits mostly inhibitors; hit rate 0.43% among 200,000; AID 1478; active means well fitted curve in the direction sought with a large enough effect; inconclusive means small, poorly fitted or top-dose-only effect, or another doubt; inactive means no such curve, though single readings can be large; an effect the other way counts as inactive or inconclusive;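 further: plate controls were neutral wells for no effect and buffer without enzyme for full effect; nearly all actives have a fitted effect of over 40% in size; top concentration of the series not given in the record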
#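 Detergent-containing arm of a paired screen for aggregation-based inhibition: 0.01% Triton X-100 present. Cruzain at 1.5 nM cleaved 2 uM Z-FR-AMC at pH 5.5 with 5 mM DTT; AMC fluorescence gain over 60 s measured activity.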
# * marks the source's active call; other numbers are inactive results; ? = inconclusive; · = no result given; & = joins results of further samples; [ ] = another dose, or the depositor's remark. Unless noted, the call rests on the fitted dose curve; in most records, active means well fitted rising curve with a large enough effect; inconclusive means small, poorly fitted or top-dose-only effect; inactive means no such curve, though single readings can be large or run the other way. Potency means the concentration at half of the fitted maximal effect.
SMILES,2A StopGo,NS1 inh,Cruzain inh noDet,MARV entry inh,LASV entry inh,SARS PLpro yeast,RE007 growth inh,Cruzain Triton
CN1C2CCC1CC(NS(=O)(=O)c1ccc(C#N)cc1)C2 (stereo not given),15%,1%,·,18%[46.1 µM],8%[46.1 µM],1%,-11%,·
Cc1ccc(C)c(NC(=O)C2CCCN(c3nc4ccccc4s3)C2)c1 (stereo not given),16%,·,-8%,12%[46.1 µM],-22%[46.1 µM],·,·,-2.1%
COC(=O)c1sc2c(c1C)c(=O)n(-c1ccccc1)c(=O)n2CC(=O)Nc1cccc(C)c1,-14%,·,-19%,·,1%[46.1 µM],·,·,0.7%
CCSc1nnc(NC(=O)c2ccc3ccccc3n2)s1,-19%,-20%,9%,?,?,-5%,-28%,-4.2%
COc1ccc(NC(=O)Nc2cnccn2)cc1OC,0%,5%,·,·,·,3%,2%,·
CN1C(=O)Nc2cccc3cccc1c23,-2%,-1%,·,·,·,-3%,0%,·
O=C(Cn1c(SCC(=O)Nc2ccc(F)cc2)nc2ccccc21)NCc1ccc(F)cc1,-18%,·,3%,·,?,·,·,-0.1%
CC(OC(=O)c1cc(O)c2ccccc2c1O)C(=O)Nc1ccc(C(N)=O)cc1 (stereo not given),16%,·,·,?,?,4%,?,·
CC/C(=N\NC(=O)c1ccccc1)c1c(O)n(Cc2ccccc2)c(=O)[nH]c1=O,-10%,-5%,·,?,-28%[46.1 µM],-2%,-6%,·
COc1ccc(C(C(=O)NC(C)(C)C)N(CC2CCCO2)C(=O)CCC(=O)Nc2cc(C)on2)cc1 (stereo not given),20%,0%,25%,-7%,-19%,?,7%,-5.3%
COc1ccccc1NS(=O)(=O)c1cc(NC(=S)NCCN2CCOCC2)ccc1N1CCOCC1,63%[activator],14%,?,0%,9%,5%,0%,-5.2%
COc1cc(C2Nc3ccccc3NC3=C2C(=O)CC(C)(C)C3)cc(OC)c1OC (stereo not given),-10%,-12%,·,21%[46.1 µM],-1%[46.1 µM],0%,-1%,·
Cc1cc(C)cc(NC(=S)/N=C(\N)Nc2nc(C)c3ccccc3n2)c1,?,22%,?,?,6%,?,12%,-5.5%
CC(=O)N(C)c1ccc(NC(=S)NCC(C)C)cc1,-2%,4%,·,·,·,1%,9%,·
CCOC(=O)N1CCC2(CC1)CC(=O)c1cc(O)ccc1O2,-19%,4%,-3%,?,-8%,2%,33%,-0.7%
COC(=O)c1ccccc1NC(=O)c1ccc(Cn2cc(Cl)cn2)o1,?,10%,-2%,?,-20%,2%,-14%,3.2%
COc1cc(OC)c(C(=O)NCc2cccnc2)cc1OC,3%,·,·,-6%,29%,0%,3%,·
CC(NC(=O)COC(=O)c1cccc(S(=O)(=O)N2CCCC2)c1)c1ccccc1 (stereo not given),-12%,·,·,15%,14%,5%,-15%,·
CC1CCN(C(=O)c2ccc(S(=O)(=O)Cc3cc(F)ccc3F)c([N+](=O)[O-])c2)CC1,?,-30%,-1%,?,?,-30%,-25%,-3.0%
CSc1nncn1/N=C/c1ccccc1F,8%,-4%,3%,2%,1%,-11%,-8%,-0.2%
Cn1c(=O)oc2cc(S(=O)(=O)N3CCCC(C(=O)Nc4nccs4)C3)ccc21 (stereo not given),?,11%,-14%,·,·,2%,1%,0.0%
Cc1nn(Cc2ccc([N+](=O)[O-])cc2)c(=O)n1-c1ccccc1Cl,-24%,·,·,3%[46.1 µM],-10%,1%,6%,·
COc1ccc(NC(=O)CC2C(=O)N(c3ccc(C)cc3)C(=O)N2C2CCCC2)cc1 (stereo not given),-9%,·,-8%,·,-23%[46.1 µM],·,·,-3.2%
O=C(Nc1ccccc1-c1ccccc1)c1ccc(Br)o1,-3%,-71%,-2%,4%,8%,-20%,-21%,-0.5%
CC(C)(CC(=O)NCc1ccc(Cl)cc1Cl)CC1=NS(=O)(=O)c2ccccc2N1,?,·,23%,·,?,·,·,-2.1%
C[C@@H]1NC(=O)c2cc([N+](=O)[O-])cc(I)c2OCC[C@@H](C(N)=O)NC(=O)[C@H](CCCCN)NC1=O,-13%,-3%,3%,11%,4%,-4%,-2%,-0.8%
N#Cc1c(=O)c2nc(NCCCO)ncc2n2c(=O)c3ccccc3[nH]c12,-8%,4%,·,14%[46.1 µM],0%,1%,2%,·
O=C(OCC(=O)N1CCN(C(=O)c2ccco2)CC1)c1ccccc1O,27%,0%,-3%,18%,14%,4%,6%,1.7%
Nn1c(Cc2cccc3ccccc23)nnc1SCCOc1ccc(Br)cc1,-22%,25%,3%,?,?,-57%,-4%,-0.9%
O=C(Nc1ccc(F)cc1)c1cccnc1NCCc1ccccc1,0%,1%,-7%,-12%,?,-44%,?,-10%
CC(C)CCN(C(=O)Nc1ccc(Cl)c(Cl)c1)C(C)c1cccs1 (stereo not given),?,·,6%,·,-26%[46.1 µM],·,·,1.1%
Cc1ccc2nc(NC(=O)c3cccc(-c4cc5ccccc5oc4=O)c3)sc2c1,·,8%,10µM*,?,?,-3%,-6%,-3.5%
COc1ccc2cc(CNc3ccc(OC)c(OC)c3)c(=O)n(CC(=O)Nc3ccccc3F)c2c1,-23%,·,14%,·,-2%[46.1 µM],·,·,6.7%
CC(=O)c1ccc(-n2ccc(=O)cc2)cc1,8%,-2%,·,·,·,-1%,11%,·
CCCN1C(=O)C(NC(=O)c2ccncc2)(C(F)(F)F)C2=C1CC(C)(C)CC2=O (stereo not given),9%,8%,12%,27%,-1%,?,-2%,-0.8%
Cc1ccc2[nH]c3c(=O)n(CC(=O)N4CCN(c5ccccc5F)CC4)ncc3c2c1,-10%,·,13%,·,-12%[46.1 µM],·,·,-0.5%
Cc1ccc(N2CC(C(=O)OCc3ccc([N+](=O)[O-])cc3)CC2=O)cc1 (stereo not given),-21%,-74%,6%,-12%,11%,-14%,-5%,2.9%
CC(C(=O)Nc1ccc2c(c1)OCO2)N(C)CC(=O)Nc1ccc(Cl)cc1 (stereo not given),10%,·,·,?,0%,·,?,·
O=C(O)C(c1ccccc1)C(c1ccccc1)c1ccccc1 (stereo not given),2%,·,·,-3%[46.1 µM],-2%[46.1 µM],1%,15%,·
CCOc1ccccc1NC(=O)c1c(NC(=O)COc2ccccc2)sc2c1CCCCC2,28%,·,-1%,·,-3%[46.1 µM],·,·,1.3%
O=C(Nc1ccccc1Cl)c1ccc([N+](=O)[O-])o1,-11%,-71%,·,13µM*,?,?,?,·
Clc1cccc(Oc2ncccn2)c1,0%,20%,10%,7%[46.1 µM],3%,9%,-6%,-1.0%
Cn1nnnc1SCC(=O)NC1CCCCC1,23%,3%,-11%,?,6%,16%,7%,7.8%
O=C(c1cc([N+](=O)[O-])ccc1Cl)N1CCN(Cc2ccc3c(c2)OCO3)CC1,-29%,0%,·,?,5%[46.1 µM],0%,1%,·
CCOC(=O)Cc1csc(NC(=O)C(NC(=O)C2CCC(C)CC2)C(C)C)n1 (stereo not given),?,-2%,·,·,·,2%,4%,·
CN(C)CCCSc1nc(-c2ccccc2)nc2c1CCC2,2%,-1%,-13%,·,·,-14%,-4%,-2.0%
Cc1ccc(OCc2ccc(C(=O)Nc3nccs3)o2)cc1,39%,-8%,-6%,6%,-6%,-1%,2%,-1.8%
CCSC1=C(C#N)C2(CCCCC2)C2=C(CC(C)(C)CC2=O)N1,-9%,5%,·,-3%[46.1 µM],-3%,0%,20%,·
COc1ccc(C2(C)NC(=O)N(CC(=O)Nc3ccc(S(=O)(=O)N4CCCC4)cc3)C2=O)cc1 (stereo not given),-13%,-4%,·,6%,-12%,-7%,2%,·
COc1ccc(Cl)cc1N/C(N)=N/c1nc(C)cc(=O)[nH]1,1%,-2%,·,4%[46.1 µM],-30%[46.1 µM],1%,11%,·
COc1cccc(C2C(C(=O)Nc3ccc(C)cc3C)=C(C)Nc3ncnn32)c1OC (stereo not given),6%,-1%,0%,14%,-9%,0%,1%,3.4%
CCOC(=O)c1ccc(NC(=O)CSc2nc3c(c(=O)n2-c2ccccc2OC)SCC3)cc1,-19%,4%,-23%,1%,·,0%,-4%,-4.0%
COc1ccc(C(=O)CSc2nc3ncccc3[nH]2)cc1OC,-29%,4%,·,-10%[46.1 µM],6%,1%,-3%,·
Nc1cnn(-c2ccccc2)c(=O)c1Cl,22%,3%,·,10%&10%&10%,?,12%,4%,·
CCc1nnc(NC(=O)CSc2ccc(-c3ccco3)nn2)s1,2%,·,·,?,-4%,-2%,-6%,·
Cc1cccc(C(=O)Nc2ccc3oc(-c4ccncc4)nc3c2)c1,?,·,?,-13%[46.1 µM],?,·,·,25µM*
COc1ccc(N2C(=O)NC(=O)/C(=C\c3ccccc3[N+](=O)[O-])C2=O)cc1,-21%,5%,·,13%[46.1 µM],·,-1%,-13%,·
Cc1cccc(NC(=O)C2CCN(S(=O)(=O)c3cccc4nsnc34)CC2)c1C,-5%,·,-16%,1%[46.1 µM],-5%[46.1 µM],·,·,0.3%
CCc1c(C)c2ccc(OC(C)C(=O)NC(Cc3c[nH]c4ccc(O)cc34)C(=O)O)c(C)c2oc1=O (stereo not given),-15%,15%,·,·,·,3%,-9%,·
CC(C)C(OC(=O)c1cccs1)C(=O)NCc1cccs1 (stereo not given),-8%,-7%,-8%,?,13%,5%,4%,3.9%

# Remaining list, next part
SMILES,2A StopGo,NS1 inh,Cruzain inh noDet,MARV entry inh,LASV entry inh,SARS PLpro yeast,RE007 growth inh,Cruzain Triton
COc1ccc(OCC(=O)N2CCN(C/C=C/c3ccccc3)CC2)cc1,-7%,-5%,·,·,·,-1%,-1%,·
NNC(=O)c1cc2c(s1)CCCCCC2,-14%,-3%,-1%,-1%,-23%,3%,33%,-0.2%
CC(C)Cc1ccc(S(=O)(=O)N2CCCC2)cc1,5%,-10%,-9%,-3%,-1%,-9%,1%,-6.4%
Cc1ccc(Cc2nnc(SCC(=O)Nc3ccccc3C)[nH]c2=O)cc1,-5%,·,·,?,4%,4%,16%,·

# This is a random part of the collection (roughly 4.7% active in at least one column).
